HSD17B inh: blocks hydroxysteroid 17-beta dehydrogenase activity. Q99714. actives 7.6% (n = 75,000). Potency, µM (series often up to 57.1 µM), for the others: at the highest dose activity change, negative = inhibition, hits mostly inhibitors. AID 893. recombinant HSD17B10, NADH fluorescence kinetic; many of its hits are not listed in these tables; active = well fitted inhibition curve with a large enough effect; inconclusive = small, poorly fitted or top-dose-only effect; inactive = no such curve, though single readings can be large or run the other way;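 note: the protocol describes HADH2 (HSD17B10) and not the HSD17B4 of the title; nearly all actives have a fitted effect of over 70% in size; most hits overshoot -100% by far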
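20 nM HADH2, pH 9.0 Tris/Tween; cpd preinc 15 min RT; start w/ 1 mM NAD+ + 90 uM b-hydroxybutyryl-CoA; kinetic fluor ex360/em450 q30s x 4 min; delta last-first.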
Active calls of the source: *; ? = inconclusive; [ ] = another dose, or the depositor's remark. % is set by controls: 0 for no effect and ±100 for the full control effect; potency is the fitted concentration of half-maximal effect.

molecule | HSD17B inh
O=C(Nc1ccc(-n2nncc2-c2ccco2)cc1)c1ccc(F)cc1 | -3%
CCN(CC)CCOCCOC(=O)C1(c2ccccc2)CCCC1 | 1%
CCOC(=O)c1[nH]c(COC(=O)C2CC(=O)N(Cc3ccccc3)C2)c(C(=O)OCC)c1C (stereo unspecified) | 6%
Cn1c(=O)cc(OCC(=O)NCc2ccccn2)c2ccccc21 | -5%
CC1CCCC(NC(=O)c2cn(C)c3ccc(S(=O)(=O)N4CCCC4)cc3c2=O)C1C (stereo unspecified) | -2%
NC(=O)c1ccc(OCC(F)(F)C(F)(F)C(F)(F)C(F)(F)C(F)(F)C(F)F)cc1 | -10%
COc1ccc(-c2coc3c(O)c(OC)ccc3c2=O)cc1 | -17%
Cc1ccccc1-c1nc(CN2CCCC(C(=O)NCc3cccnc3)C2)c(C)o1 (stereo unspecified) | 10%
CCS(=O)(=O)c1ccc2oc(SCC(=O)c3ccco3)nc2c1 | -15%
O=C(NC1CCCCC1)NC1CCN(S(=O)(=O)c2ccc3c(c2)OCCO3)CC1 | 27%
Cc1occc1-c1nnc(SCC(=O)c2ccc(F)cc2)o1 | 3%
O=c1[nH]c(C2CCCN(S(=O)(=O)c3ccccc3)C2)nc2c1nnn2Cc1ccccc1F (stereo unspecified) | 1%
COc1ccc2[nH]c(=O)c(CN(C3CCCCC3)C(c3nnnn3Cc3ccco3)C(C)C)cc2c1 (stereo unspecified) | ?
O=S(=O)(c1cccc(S(=O)(=O)N2CCN(c3ncccn3)CC2)c1)N1CCOCC1 | -6%
CCc1ccc2[nH]c(=O)c(C(c3nnnn3CCOC)N3CCN(c4ccccc4)CC3)cc2c1 (stereo unspecified) | ?
CC(=O)c1c(C)nn(CC(O)COc2ccc3c(c2)CCC3)c1C (stereo unspecified) | 5%
NC(=O)C1CCN(c2oc(-c3ccccc3F)nc2S(=O)(=O)c2ccc(Cl)cc2)CC1 | -5%
Cc1ccccc1OCCn1nc(C(=O)O)c2ccccc2c1=O | -6%
COc1ccc(-n2nnc3c(=O)n(CC(=O)NCC4CCCO4)cnc32)cc1 (stereo unspecified) | -23%
CCSc1nc(-c2ccc(OC)cc2)n(-c2nc3ccccc3s2)n1 | 32µM*
CSc1ccc(-c2nc(CSCC(=O)N3CCOCC3)c(C)o2)cc1 | 25µM*
CCC(CC)C(=O)NCc1ccccc1OC | 0%
Cc1cccc(-n2ncc3c(NC4CCCCC4)ncnc32)c1 | ?
Cc1cnc(C(=O)Nc2nnc(C(C)C)s2)cn1 | 4%
c1ccc2[nH]c(SCc3ccc(-c4nnco4)cc3)nc2c1 | -1%
Cc1ccc2c(C)nc(Nc3ncc4c(n3)CCCC4=O)nc2c1 | -11%
CC(C)N1C(=O)C2C(C(=O)NC3CCCCC3)C3C=CC2(O3)C1C(=O)NC1CCCC1 (stereo unspecified) | 6%
Cn1c(=O)[nH]c(=O)c2c1nc(N1CCOCC1)n2CCSc1ncccn1 | 15%
COc1cccc(-n2nnc3c(=O)n(Cc4ccccc4Cl)cnc32)c1 | 1%
O=C(NCCN1C(=O)C2C3C=CC(C3)C2C1=O)N1CCOCC1 (stereo unspecified) | 2%
COC(=O)Nc1nnc(SCc2ccc(C)cc2)s1 | 0%
CCN1CCCC1Cn1c(-c2ccccc2)nc2c(NCCOC)nc(C)nc21 (stereo unspecified) | 25µM*

Arranged by SMILES length (low to high): part of the list above.
molecule | HSD17B inh
CCC(CC)C(=O)NCc1ccccc1OC | 0%
COC(=O)Nc1nnc(SCc2ccc(C)cc2)s1 | 0%
Cc1cnc(C(=O)Nc2nnc(C(C)C)s2)cn1 | 4%
Cc1ccccc1OCCn1nc(C(=O)O)c2ccccc2c1=O | -6%
c1ccc2[nH]c(SCc3ccc(-c4nnco4)cc3)nc2c1 | -1%
Cc1ccc2c(C)nc(Nc3ncc4c(n3)CCCC4=O)nc2c1 | -11%
CCSc1nc(-c2ccc(OC)cc2)n(-c2nc3ccccc3s2)n1 | 32µM*
COc1cccc(-n2nnc3c(=O)n(Cc4ccccc4Cl)cnc32)c1 | 1%
CCN1CCCC1Cn1c(-c2ccccc2)nc2c(NCCOC)nc(C)nc21 (stereo unspecified) | 25µM*
Cn1c(=O)[nH]c(=O)c2c1nc(N1CCOCC1)n2CCSc1ncccn1 | 15%
COc1ccc(-n2nnc3c(=O)n(CC(=O)NCC4CCCO4)cnc32)cc1 (stereo unspecified) | -23%
NC(=O)C1CCN(c2oc(-c3ccccc3F)nc2S(=O)(=O)c2ccc(Cl)cc2)CC1 | -5%
CC(C)N1C(=O)C2C(C(=O)NC3CCCCC3)C3C=CC2(O3)C1C(=O)NC1CCCC1 (stereo unspecified) | 6%

Following part
molecule | HSD17B inh
Nc1nc2c(s1)C(=O)CCC2 | 4%
NC(=O)c1c(NC(=O)CSc2nnc(-c3ccccc3)n2CC2CCCO2)sc2c1CCC2 (stereo unspecified) | -38%
CC(=O)C(Sc1ccc2nnc(-c3ccc(C)cc3)n2n1)C(C)=O | 8%
CCn1c(COc2cccc(OC)c2)nnc1SCC(=O)Nc1cccc(OC)c1 | 11%
CO[C@H]1COC(=O)CCC[C@@H](C)[C@H](OC)COC(=O)[C@H]2CCCN2C(=O)C/C=C\[C@@H]1C | 3%[11.4 µM]
O=C(Nc1ccccc1Sc1ccccc1)C1CCCO1 (stereo unspecified) | 1%
N=C(N)SCCc1ccc(CCSC(=N)N)cc1 | 5%
CC1CCC2C(=O)N3C(CCC(C)[C@H]3c3cccc(N4CCCC4=O)c3)C(=O)N2C1c1cccc(N2CCCC2=O)c1 (stereo partly specified) | -1%[11.4 µM]
Cc1cc(Nc2ccc(F)cc2F)n2nc(C)nc2n1 | 3%
COc1ccc(OC)c(S(=O)(=O)NCCC2=CCCCC2)c1 | -29%
CC(=O)c1cccc(NC(=O)N2CCCC2C(=O)NCCC(C)C)c1 (stereo unspecified) | 8%
CC(CN1CCOCC1)OC(=O)c1ccccc1Br (stereo unspecified) | 1%
C=C(C)Cn1c(SCC(=O)O)nnc1-c1ccc(C(C)(C)C)cc1 | 7%
COc1cc2cc(C(c3nnnn3C3CCCC3)N3CCCCC3)c(=O)[nH]c2cc1OC (stereo unspecified) | -19%
Cn1c(C(O)c2ccccc2F)nc(Cl)c1Cl (stereo unspecified) | 7%
O=C(Cc1ccccc1)Nc1nc2ccccc2[nH]1 | ?
CC1CCCCC1NC(=O)CN1C(=O)NC(C)(c2ccc(OC(F)F)cc2)C1=O (stereo unspecified) | 6%
N#Cc1c(NC(=O)CCCN2C(=O)c3ccccc3C2=O)oc(-c2ccccc2)c1-c1ccccc1 | 6%
N[C@H](C(=O)O)[C@H](N)C(=O)O | 6%[11.4 µM]
COCCCN=CC1=C(O)CC(C)(C)CC1=O | 5%
Cc1ccc(S(=O)(=O)NC(CC(N)=O)C(=O)O)cc1 (stereo unspecified) | 2%
CCOc1ccccc1NC(=O)C1C2C=CC(O2)C1C(=O)O (stereo unspecified) | -5%
CCOC(=O)c1c(CC(C)C)csc1NC(C)=O | -12%
Cc1ccc(N(C(=O)Cn2nnc3ccccc32)C(C(=O)NCc2ccco2)c2ccc(C)o2)cc1 (stereo unspecified) | -4%

3 compounds out of the list, ordered by count of non-hydrogen atoms, descending:
molecule | HSD17B inh
CCOc1ccccc1NC(=O)C1C2C=CC(O2)C1C(=O)O (stereo unspecified) | -5%
CCOC(=O)c1c(CC(C)C)csc1NC(C)=O | -12%
N[C@H](C(=O)O)[C@H](N)C(=O)O | 6%[11.4 µM]

(listing goes on)
molecule | HSD17B inh
CC1CCc2nn(CC(=O)NCCN3CCCCC3C)cc2C1 (stereo unspecified) | 9%
CCCc1nnc(SCC(=O)Nc2ccc(OC)cc2)n1N | -2%
c1ccc(-c2csc3ncn4nnnc4c23)cc1 | 25µM*
COCCCN1C(=O)C(=O)/C(=C(/O)c2ccccc2)C1c1ccc2c(c1)OCO2 (stereo unspecified) | 6%
Cc1c(C(=O)NCCC2=CCCCC2)oc2ccc(S(=O)(=O)N3CCOCC3)cc12 | -18%
Oc1cc(CN2COc3ccccc32)c(O)cc1CNC1CCCCC1 | 1.6µM*
Cc1noc(NS(=O)(=O)c2ccc(NC(=O)C34CCC(CC3)C4)cc2)c1C | 9%
CCOc1cccc(/C(O)=C2/C(=O)C(=O)N(CCOC)C2c2ccc(C)o2)c1 (stereo unspecified) | 1%
Cc1nnc(SCC(=O)N2CCCCC2)s1 | 10%
COc1ccc(CNc2nc3nc(C)c(Cl)c(=O)n3[nH]2)cc1OC | 2%
CC(C)Cc1nccs1 | -2%
Cc1ccc(-n2ncc3c(=O)n(CC(=O)NC4CCCCC4)cnc32)cc1C | ?
COc1ccc2c(c1OC)C(=O)N1c3ccccc3COC21 (stereo unspecified) | -11%
CC(C)Cc1nnc(NS(=O)(=O)c2ccc(Cl)cc2)s1 | -27%
COC(=O)CSc1nnc(CNC(=O)c2ccc(S(=O)(=O)N3CCCCC3)cc2)n1C | 6%
COc1cccc2c1NC(C(=O)O)C1CC=CC21 (stereo unspecified) | 7.9µM*
Cn1nc(-c2ccc(Cl)cc2)c2cc(C(=O)NCc3ccco3)sc21 | 32µM*
C/C(Cl)=C\Cn1c(Nc2ccc(C)cc2)nc2c1c(=O)n(C)c(=O)n2C | -6%
Cc1cc(F)c(F)c(C(=O)NC2CC2)c1Cl | 2%
O=C(c1csc2ccccc12)n1cccn1 | -13%
N#Cc1c(N)nc2c(c1-c1ccc3c(c1)OCO3)CCCCCC2 | 10%
O=C(Cn1c(=O)sc2ccccc21)Nc1ccc2c(c1)OCCO2 | -1%
N#Cc1ccccc1NC(=O)CSc1nnc(-c2ccccc2O)n1-c1ccccc1 | -1%
Cc1ccc(C)n1-c1ccc(N2CCOCC2)cc1 | 10%
CCOc1cccc(=O)c2c(C)n(CC3CCCO3)c(C)c12 (stereo unspecified) | -1%
Cc1ccc(OCc2nnc(SCC(=O)C(C)(C)C)n2Cc2ccco2)cc1 | -3%
CCCCOc1ccc(S(=O)(=O)Nc2cccnc2)cc1 | 8%
Cc1csc2nc(CNC(=O)C3CCCCC3)cn12 | 9%
Cc1ccc(OS(=O)Nc2cccc3nccnc23)cc1 (stereo unspecified) | -3%
CSc1nnc2c(n1)OC(c1cccn1C)N(C(C)=O)c1ccccc1-2 (stereo unspecified) | -4%
COc1ccc(-c2nc(CS(=O)CC(=O)NCCC3=CCCCC3)c(C)o2)cc1 (stereo unspecified) | ?
CC(C(=O)N1CCCCC1)n1ncn2cccc2c1=O (stereo unspecified) | 3%

The listing continues:
Compound	HSD17B inh
OCc1cn(-c2ccccc2)nc1-c1ccc2c(c1)OCCO2	25µM*
c1ccc(CNc2nc3ccccc3n3cnnc23)nc1	-1%
O=C1CCc2cc(S(=O)(=O)N3CCCC3C(=O)N3CCN(c4ccccc4F)CC3)ccc2N1 (stereo unspecified)	7%
c1ccc2sc(NC3=NCN(Cc4ccc5c(c4)OCO5)CN3)nc2c1	?
CCC(C)NC(=O)C1CCCN(C(=O)Nc2ccc(F)cc2)C1 (stereo unspecified)	4%
CCc1nc(C)cn1S(=O)(=O)c1cc(C)c(OC)cc1C	11%
C(=N\n1cnnc1)/c1cccc2ccccc12	?
Cc1nn(-c2ccccc2)c(C)c1C(=O)Nc1nnc(-c2ccco2)o1	-4%
CC1=C(C(=O)OC(C)C)C(c2cccc(F)c2)n2ncnc2N1 (stereo unspecified)	-2%
O=C(CCS(=O)(=O)c1cccs1)Nc1ccc(C(=O)NCc2cccs2)cc1	6%
c1cc(N2CCCC2)ccc1C(c1nnnn1C1CCCCC1)N1CCOCC1 (stereo unspecified)	3%
O=C(Cn1cccc1)NC1CCCCCC1	6%
CC1(C)CCCC2=C1CC1C(=O)N(Cc3cccnc3)C(=O)C1C2 (stereo unspecified)	?
COc1ccc2c(=O)cc(-c3ccncc3)oc2c1OC	-2%[11.4 µM]
Cc1cccc(C(=O)N(C)c2nnc(-c3ccncc3)s2)c1	249%[activator]
CC1(C)CCC(C)(C)c2cc(C(=O)Nc3ccc(C(=O)O)cc3)ccc21	-5%
O=[N+]([O-])c1ccc(NN=C2c3ccccc3Cc3ccccc32)c([N+](=O)[O-])c1	?
CCCn1nnc2sc3c(c2c1=O)CCC(C)C3 (stereo unspecified)	-3%
CCOC(=O)C1CCCN(C(=O)C2CCN(S(=O)(=O)N3CCC4(CC3)OCCO4)CC2)C1 (stereo unspecified)	6%
O=C(CNCc1ccco1)Nc1ccccc1-n1cccc1	-3%
Cc1cc(C)n(-c2nc3ccccc3c3nc(C)nn23)n1	-8%
CN1CCc2nc(SCC(=O)Nc3ccc(F)cc3)c(C#N)cc2C1	-16%
CN(C)c1ccc2c(c1)OC(N)=C(C#N)C2c1cccc(F)c1 (stereo unspecified)	-21%
COc1ccc(S(=O)(=O)N2CCN(C)CC2)c2ccccc12	0%
COc1ccc(N2CCN(Cc3nc(N)nc(Nc4ccc(C)c(Cl)c4)n3)CC2)cc1	-19%
Cc1cc(C2N=C(N)Nc3nc4ccccc4n32)c(C)n1-c1ccccc1Cl (stereo unspecified)	6%
COc1c2c(nc3occc13)C(CCC(C)(C)O)(OC)C(O)CC2 (stereo unspecified)	-2%
O=C(Nc1ccc2oc(-c3ccccc3F)nc2c1)c1cncc(Br)c1	-20%
Cc1cc(C)n(-c2nc3ccccc3nc2N2CCCCCC2)n1	-7%
Cc1nn2c3cc(N4CCOCC4)ccc3nc2c2ccccc12	-4%
c1nnc2c3c4c(sc3ncn12)CCCC4	10%
CC1CCCN(CC(=O)Nc2ccc(S(=O)(=O)N3CCCCCC3)cc2)C1 (stereo unspecified)	2%
COc1ccc(N2CCN(C(=O)CSc3nnc4nc(C)cc(C)n34)CC2)cc1	6%
COC(=O)[C@@]1(Cc2ccccc2)[C@H]2c3cc(C(=O)N4CCCC4)n(CCN4CNCC4=O)c3C[C@H]2CN1C(=O)c1ccccc1	11%
COC(=O)c1cccc(NC(=O)CSc2nc(C)cc(=O)[nH]2)c1	-6%
CCOC(=O)c1ccc(Oc2nc(NC)nc(OC)n2)cc1	0%

This is a subset; rates above refer to the full screens.
